CtBP-E1A inh: blocks the CtBP interaction with E1A | AlphaScreen GST-E1A/His-CtBP binding, 1536-well; hits give low values; control for the full effect not named in the record | AID 651724 | activity change, % (concentration not given with the values) | actives 0.49% (n = 340,000); in the data active means activity change below about -65%; inconclusive means about -30% to -65%; inactive means above about -30%; further: on the % scale 0 is the no-effect control and ±100 the full control effect
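GST-E1A and His-tagged CtBP (125 nM each as 5X stock) were preincubated with pin-transferred compound for 2 h at 37 °C in the dark, then glutathione donor and nickel acceptor beads were added for 1 h before AlphaScreen reading.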
ClpP mod: qHTS Assay for Activators of ClpP; ATP-dependent Clp protease proteolytic subunit (Bacillus subtilis (strain 168)), P80244; purified B. subtilis ClpP, FRET peptide cleavage, 20 min; Potency, µM (series often up to 57.5 µM), without a hit: at the highest dose activity change, negative = active; actives 1.9% (n = 340,000); AID 651965, 2013; active = well fitted falling curve with a large enough effect; inconclusive = small, poorly fitted or top-dose-only effect; inactive = no such curve, though single readings can be large or run the other way; further: potency means the concentration at half of the fitted maximal effect; the source files actives as falling curves though it sought activators and does not explain the sign; nearly all actives have a fitted effect of over 65% in size; many hits overshoot -100%
Target sequence (P80244 whole entry, looked up): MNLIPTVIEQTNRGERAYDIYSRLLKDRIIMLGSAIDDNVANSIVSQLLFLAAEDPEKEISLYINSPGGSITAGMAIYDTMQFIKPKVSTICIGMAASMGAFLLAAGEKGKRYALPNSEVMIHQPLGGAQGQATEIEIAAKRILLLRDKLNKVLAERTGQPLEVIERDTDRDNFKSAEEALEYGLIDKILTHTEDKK
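ClpP 10 microg/mL final, pH 8 Tris/KCl buffer with BSA, glycerol, Tween-20; compound pinned in; FRET-FV substrate; RT 20 min; Ex320/Em430; ΔFRET vs ADEP 5.8 microM, DMSO, no enzyme.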
gsp antagonist: antagonizes gsp, the McCune-Albright syndrome mutation. gsp-mutant cells, cAMP HTRF, 30 min; control for the full effect not named in the record. Potency, µM (titrated, usually from 76.9 µM), for inactives: at the highest dose activity change, negative = inhibition, actives largely listed as inhibitors. actives 0.4% (n = 340,000). AID 624288; active = falling curve of any shape with a large fitted effect; inconclusive = falling curve, mostly with a smaller effect; inactive = flat or rising curve; cell line not stated here;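 further: intracellular cAMP measured with PDE inhibitor Ro 20-1724 present during compound exposure; potency means the concentration at half of the fitted maximal effect; on the % scale 0 is the no-effect control and ±100 the full control effect; nearly all actives have a fitted effect of over 65% in size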
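Cells, 2000/well, grown 16–24 h in DMEM 10% FBS with 0.5 mg/ml G418, then compounds plus […] (300 uM addition stock), 30 min at 37C. cAMP read by HTRF (cAMP-d2 and anti-cAMP antibody-K in lysis buffer) after 30 min RT.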
TRPV1 potentiator: human TRPV1 potentiation | actives 0.02% (n = 320,000) | TRPV1-expressing cells, Fluo-8 calcium influx, capsaicin EC20 potentiation; host cell line not named in the record; control for the full effect not named in the record | potentiation, % at 8.33 µM | AID 540277; active means potentiation above 80%; inconclusive means 30% to 80%; inactive means below 30%; further: 0% is about no effect
Target sequence (Q8NER1 whole entry, looked up): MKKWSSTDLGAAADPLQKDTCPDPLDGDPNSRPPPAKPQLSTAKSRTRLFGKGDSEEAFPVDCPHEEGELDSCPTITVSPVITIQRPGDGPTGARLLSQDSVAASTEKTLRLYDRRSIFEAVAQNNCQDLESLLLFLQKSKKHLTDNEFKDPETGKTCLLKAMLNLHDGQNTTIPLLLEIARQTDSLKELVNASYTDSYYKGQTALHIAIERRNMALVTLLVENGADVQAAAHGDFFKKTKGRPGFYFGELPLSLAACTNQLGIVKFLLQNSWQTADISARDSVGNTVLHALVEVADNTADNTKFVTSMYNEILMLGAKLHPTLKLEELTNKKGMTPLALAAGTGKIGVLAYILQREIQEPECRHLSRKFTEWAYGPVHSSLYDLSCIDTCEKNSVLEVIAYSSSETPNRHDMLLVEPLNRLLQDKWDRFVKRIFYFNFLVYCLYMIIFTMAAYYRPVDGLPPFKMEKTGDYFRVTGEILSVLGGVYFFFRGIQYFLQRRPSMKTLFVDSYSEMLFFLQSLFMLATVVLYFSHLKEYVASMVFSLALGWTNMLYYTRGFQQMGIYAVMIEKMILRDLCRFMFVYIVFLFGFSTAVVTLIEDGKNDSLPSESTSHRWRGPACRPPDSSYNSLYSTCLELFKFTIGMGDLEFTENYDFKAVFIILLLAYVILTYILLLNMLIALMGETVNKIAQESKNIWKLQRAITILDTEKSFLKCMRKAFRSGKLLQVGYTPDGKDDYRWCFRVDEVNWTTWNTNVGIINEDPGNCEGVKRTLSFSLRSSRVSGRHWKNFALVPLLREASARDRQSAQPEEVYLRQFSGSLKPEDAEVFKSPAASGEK
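Fluo-8 calcium influx in TRPV1-expressing cells, kinetic read (ex 480/em 520 nm). Compound added and read 3 min for agonist activity, followed by capsaicin at EC20 final and 2 min further read for enhancement.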
Menin-MLL FL inh: menin-MLL binding inhibition, fluorescein peptide; FP activity change, % at 61.4 µM; Fluorescence polarization, fluorescein-MLL peptide displacement from menin; AID 1766; 290,000 tested, under 10 active; inconclusive = falling polarisation curve, or a change in total fluorescence; inactive = total fluorescence flat and polarisation flat or rising; no compound was filed as active; the % refers to the polarisation; negative = inhibition;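 further: % of control where 0% means no effect; inhibitors lower the polarisation; unlabelled MLL peptide was the positive control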
gsp agonist: activates gsp, the McCune-Albright syndrome mutation | gsp mutant cells, cAMP HTRF, 30 min; control for the full effect not named in the record | Potency, µM (titrated, usually from 76.9 µM), for the others: at the highest dose activation (cAMP increase), most hits filed as activators | actives 0.13% (n = 340,000) | AID 624287; active = well fitted activation curve with a large enough effect; inconclusive = small, poorly fitted or top-dose-only effect, or another doubt; inactive = no such curve, though single readings can be large or run the other way; cell line not stated here;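 further: phosphodiesterase inhibitor Ro 20-1724 added with compounds to block cAMP breakdown; potency means the concentration at half of the fitted maximal effect; nearly all actives have a fitted effect of over 60% in size; about a fifth of the inactives were tested at one dose only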
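Cells stably selected in G418 were plated at 2000/well, grown 16-24 hr, then given compounds in DMSO with the PDE inhibitor […] (300 uM solution added) for 30 min at 37C; cAMP was read by HTRF.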
Sfp PPTase inh: blocks B. subtilis Sfp PPTase activity. Potency, µM, without a hit: max response, negative = inhibition, actives largely listed as inhibitors. Q9F4F7. actives 3.5% (n = 310,000). Biochemical Sfp PPTase activity, qHTS; active means well fitted inhibition curve with a large enough effect; inconclusive means small, poorly fitted or top-dose-only effect, or another doubt; inactive means no such curve, though single readings can be large or run the other way;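 further: the enzyme is Sfp with the accession as filed and its product quenches rhodamine fluorescence; potency means the concentration at half of the fitted maximal effect; 0% = enzyme reaction without inhibitor and -100% = no enzyme wells; top concentration of the series not given in the record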
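After 15 min at room temperature with compound, 15 nM Sfp received 5 uM rhodamine-CoA plus 12.5 uM BHQ-2-ybbR (50 mM Hepes pH 7.6, 10 mM MgCl2). Rate came from the fluorescence difference over 30 min, ex 525/em 598 nm.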
* hit, by the source's call; [ ] = another dose, or the depositor's remark.

For COc1ccccc1CCNC(=O)c1csc2c1CCCC2 the results were CtBP-E1A inh -8, ClpP mod -2.4%, gsp antagonist -19%, TRPV1 potentiator 6, Menin-MLL FL inh 1.0, gsp agonist 2%[15.4 µM] and Sfp PPTase inh 14%.
`OCn1ncn(-c2ccccc2)c1=S` gave CtBP-E1A inh 5, ClpP mod -2.2%, gsp antagonist 5%[15.4 µM], TRPV1 potentiator -2, Menin-MLL FL inh 1.7, gsp agonist 7% and Sfp PPTase inh 0%.
For CN(c1ccccc1)S(=O)(=O)c1cccc(NC(=O)C2CC(=O)N(Cc3ccccc3)C2)c1 (centres undefined) the results were ClpP mod -1.3%, gsp antagonist inconclusive, TRPV1 potentiator 5, Menin-MLL FL inh 0.1, gsp agonist -16% and Sfp PPTase inh 12%.
For CCOC(=O)C1CCN(C(=O)C2CC(=O)N(c3ccc(C)cc3)C2)CC1 (centres undefined) the results were CtBP-E1A inh 0, ClpP mod -2.1%, gsp antagonist -10%, TRPV1 potentiator 4, Menin-MLL FL inh 1.5, gsp agonist -31%[inhibitor] and Sfp PPTase inh -21%.
CCOc1ccc2c(c1)cc(CN(C(=O)CC)C1CCCCC1)c1nnnn12 was read as CtBP-E1A inh -2, ClpP mod -13%, gsp antagonist -2%, TRPV1 potentiator -30, Menin-MLL FL inh 1.9, gsp agonist -18% and Sfp PPTase inh -6%.
Screening O=C(Nc1ccc2c(c1)OCO2)N1CCOCC1 returned CtBP-E1A inh 4, ClpP mod -3.9%, gsp antagonist 1%, TRPV1 potentiator -7, Menin-MLL FL inh 3.0, gsp agonist -31%[inhibitor] and Sfp PPTase inh 6%.
Screening O=C(CSc1nc2c(oc3ccccc32)c(=O)n1CC1CCCO1)NCc1ccc(F)cc1 (centres undefined) returned CtBP-E1A inh -9, ClpP mod -5.2%, gsp antagonist -3%, TRPV1 potentiator -19 and gsp agonist -7%[15.4 µM].
For COc1ccc(OC)c(S(=O)(=O)N2CCCC(C(=O)NCc3ccco3)C2)c1 (centres undefined) the results were CtBP-E1A inh 2, gsp antagonist -4%, TRPV1 potentiator 2, Menin-MLL FL inh 0.5, gsp agonist -5%[15.4 µM] and Sfp PPTase inh -11%.
For COC(=O)C(CCSC)NC(=O)CNS(=O)(=O)c1ccc(Br)cc1 (centres undefined) the results were CtBP-E1A inh 9, ClpP mod -0.8%, gsp antagonist -14%, TRPV1 potentiator 0, Menin-MLL FL inh 4.3, gsp agonist 1% and Sfp PPTase inh 5%.
For CCOC(=O)C(=O)Nc1nc(-c2ccccc2)c(-c2ccccc2)o1 the results were CtBP-E1A inh -14, ClpP mod 25%, gsp antagonist -10%, TRPV1 potentiator 1, Menin-MLL FL inh 1.1, gsp agonist -3% and Sfp PPTase inh 6%.
For CC(C)CCC1(CCNC(=O)c2cccs2)CCOC(C)(C)C1 (centres undefined) the results were CtBP-E1A inh 2, gsp antagonist -8%, TRPV1 potentiator 15, Menin-MLL FL inh 3.1, gsp agonist 4%[15.4 µM] and Sfp PPTase inh 8%.
CCc1ccc(N2C(=O)Cc3c2nc(N)c(C#N)c3N)cc1 was read as CtBP-E1A inh -24, ClpP mod -7.3%, gsp antagonist -4%, TRPV1 potentiator -5, Menin-MLL FL inh 0.6, gsp agonist 1% and Sfp PPTase inh 4%.
`O=C(Nn1cnc2ccccc2c1=O)c1ccc(F)cc1Cl` gave CtBP-E1A inh 8, ClpP mod -0.3%, gsp antagonist -5%, Menin-MLL FL inh 2.6, gsp agonist 6% and Sfp PPTase inh 1%.
For Cc1cc2nnc(SCC(=O)N(C)C3CCS(=O)(=O)C3)n2c2ccccc12 (centres undefined) the results were ClpP mod -25%, gsp antagonist -4%, TRPV1 potentiator 7, Menin-MLL FL inh -0.5, gsp agonist inconclusive and Sfp PPTase inh 6%.
`CC(OC(=O)C1CCN(S(=O)(=O)c2ccc(C(C)(C)C)cc2)CC1)C(=O)N(C)C1CCCCC1` (centres undefined) gave CtBP-E1A inh 0, ClpP mod -2.1%, gsp antagonist -11% and gsp agonist 15%.
`COc1ccc(NC(=O)c2cccc(N3C(=O)C4CC=C(C)CC4C3=O)c2)c(OC)c1` (centres undefined) gave CtBP-E1A inh -3, gsp antagonist -13%, TRPV1 potentiator -5, gsp agonist -34%[inhibitor] and Sfp PPTase inh 2%.
For COc1ccc(N2CCN(C(=O)c3ccc(S(=O)(=O)N4CCOCC4)cc3)CC2)cc1 the results were CtBP-E1A inh -1, ClpP mod -4.9%, gsp antagonist 2%, TRPV1 potentiator -13, Menin-MLL FL inh -0.5, gsp agonist -9% and Sfp PPTase inh 9%.
Cc1cccnc1NC(=O)CSc1ccc2c(c1)OCCO2 was read as ClpP mod -7.2%, gsp antagonist 7%, TRPV1 potentiator 11 and gsp agonist 7%.
For COc1ccc(N2CCN(Cc3cc(=O)oc4cc(-c5ccccc5)c(O)cc34)CC2)cc1 the results were CtBP-E1A inh 7, ClpP mod 32µM*, gsp antagonist -3%, TRPV1 potentiator inconclusive, Menin-MLL FL inh 3.1, gsp agonist inconclusive and Sfp PPTase inh 4%.
`COCCN(C(=O)COC(=O)CC(C)c1ccccc1)c1c(N)n(Cc2ccccc2)c(=O)[nH]c1=O` (centres undefined) gave CtBP-E1A inh 11, gsp antagonist 6%, TRPV1 potentiator -10 and gsp agonist 18%[15.4 µM].
For CCCC(=O)N1CCN(c2ccc(NC(=S)NC(=O)c3cccc(C)c3)cc2)CC1 the results were CtBP-E1A inh -6, ClpP mod inconclusive, gsp antagonist inconclusive, TRPV1 potentiator 7, Menin-MLL FL inh 6.4, gsp agonist 6%[15.4 µM] and Sfp PPTase inh -16%.
CC(C)(C)c1cc(Cc2ccccc2)[nH]n1 was read as CtBP-E1A inh 5, ClpP mod -0.7%, gsp antagonist 11%, TRPV1 potentiator 3, Menin-MLL FL inh -1.5, gsp agonist 18% and Sfp PPTase inh 7%.
Screening COC(=O)c1ccc(/C=N/N2C(C)CCCC2C)cc1 (centres undefined) returned CtBP-E1A inh -25, gsp antagonist -4%, TRPV1 potentiator -14, Menin-MLL FL inh 0.9, gsp agonist 11% and Sfp PPTase inh 13%.
Cc1ccc(NC(=O)CC2SC3=NCCN3C2=O)cc1 (centres undefined) was read as CtBP-E1A inh 2, ClpP mod -0.5%, gsp antagonist 3%, TRPV1 potentiator 18, Menin-MLL FL inh 0.6, gsp agonist 6% and Sfp PPTase inh 71µM*.
For COc1ccccc1C(=O)Nc1cccc2nc(C)ccc12 the results were CtBP-E1A inh 3, ClpP mod -1.0%, gsp antagonist -21%, TRPV1 potentiator 9, Menin-MLL FL inh -1.8, gsp agonist 14%[15.4 µM] and Sfp PPTase inh 6%.
For COc1cccc(C(=O)NCC(=O)OCc2ccc(F)cc2Cl)c1 the results were CtBP-E1A inh 6, gsp antagonist -18%, TRPV1 potentiator -23, Menin-MLL FL inh 4.7, gsp agonist 4%[15.4 µM] and Sfp PPTase inh 9%.
`CCCCCOC(=O)Cc1c(C)nc(-c2ccccc2)[nH]c1=O` gave CtBP-E1A inh -12, ClpP mod 1.2%, gsp antagonist -7%, TRPV1 potentiator -2, Menin-MLL FL inh 1.6, gsp agonist -3% and Sfp PPTase inh 15%.
For CCOC(=O)c1c(CN2CCC(C)CC2)n(C)c2cc(Br)c(OC)cc12 the results were CtBP-E1A inh 6, gsp antagonist -5%, TRPV1 potentiator -17, Menin-MLL FL inh 4.2, gsp agonist -15% and Sfp PPTase inh 7%.
COc1cc(/C=N/NC(=O)c2ccc(Cn3cc([N+](=O)[O-])cn3)o2)cc(Br)c1O was read as CtBP-E1A inh -9, TRPV1 potentiator -4, Menin-MLL FL inh -1.1, gsp agonist 5%[15.4 µM] and Sfp PPTase inh -6%.
For COC(=O)c1ccccc1Oc1cnc2ccccc2n1 the results were CtBP-E1A inh -12, ClpP mod -0.7%, gsp antagonist -7%, TRPV1 potentiator 17, Menin-MLL FL inh 1.3, gsp agonist 4%[15.4 µM] and Sfp PPTase inh 3%.
`COCc1c(Br)c(C)nc(OCC(=O)N/N=C/c2cc(C)n(-c3ccc([N+](=O)[O-])cc3)c2C)c1C#N` gave CtBP-E1A inh -8, ClpP mod -0.6%, gsp antagonist 3%, TRPV1 potentiator -4, Menin-MLL FL inh 4.3, gsp agonist 29% and Sfp PPTase inh 17%.
`O=C(NCc1ccccn1)C1Nc2ccc(C(F)(F)F)cc2C2C=CCC12` (centres undefined) gave CtBP-E1A inh inconclusive, ClpP mod -2.2%, gsp antagonist inconclusive and gsp agonist 16%.
N#CCC(=O)N/N=C/c1coc2ccccc2c1=O was read as CtBP-E1A inh 3, ClpP mod -1.0%, gsp antagonist -11%, TRPV1 potentiator 1, Menin-MLL FL inh 23, gsp agonist 25%[15.4 µM] and Sfp PPTase inh -6%.
`Cc1nnc(SCC(=O)N(CC(C)C)c2c(N)n(CC(C)C)c(=O)[nH]c2=O)n1-c1ccccc1` gave ClpP mod 0.2%, gsp antagonist 14%, TRPV1 potentiator 4, Menin-MLL FL inh 1.1, gsp agonist -17% and Sfp PPTase inh -17%.
For N#Cc1cc(C(=O)c2ccccc2O)cn(-c2nccs2)c1=O the results were CtBP-E1A inh -1, ClpP mod -13%, gsp antagonist -6%, TRPV1 potentiator -17, gsp agonist -7% and Sfp PPTase inh -12%.
Screening C=CCOC(=O)C1=C(C)NC(C)=C(C(=O)OCC=C)C1/C=C/c1ccccc1 returned CtBP-E1A inh 22, ClpP mod inconclusive, gsp antagonist 8%, TRPV1 potentiator 7, Menin-MLL FL inh 3.5, gsp agonist -4% and Sfp PPTase inh 19%.
Screening COc1ccc(N2CC(C)Cn3c2nc2c3c(=O)n(Cc3ccccc3)c(=O)n2C)c(OC)c1 (centres undefined) returned CtBP-E1A inh inconclusive, gsp antagonist inconclusive, TRPV1 potentiator 23, Menin-MLL FL inh -0.4, gsp agonist 9% and Sfp PPTase inh -20%.
For CC(=O)Nc1cccc(NC(=O)NC2CC(=O)N(c3ccc4c(c3)OCCO4)C2)c1 (centres undefined) the results were CtBP-E1A inh 3, ClpP mod 1.2% and gsp agonist -17%.
Screening CCCCCCC#Cc1ccc2c(c1)COc1c3ccccc3nn1-2 returned CtBP-E1A inh 7, ClpP mod -4.0%, gsp antagonist -1%, TRPV1 potentiator 2, Menin-MLL FL inh -1.6, gsp agonist -17% and Sfp PPTase inh -3%.
CN(C)S(=O)(=O)c1cccc(C(=O)OCC(=O)Nc2ccc3c(c2)OCCO3)c1 was read as CtBP-E1A inh -4, ClpP mod -0.6%, gsp antagonist 2%, TRPV1 potentiator -23 and gsp agonist -25%.

Assay outcomes deposited in PubChem BioAssay by National Center for Advancing Translational Sciences (NCATS).
